# Rango dissoc inh – inhibition of RanGTP-driven Rango-importin beta dissociation | Biochemical FRET Rango-importin beta, RanGTP-induced dissociation | Potency, µM (doses to about 46.1 µM), for inactives: top-dose activity change, negative = inhibition | 340,000 tested, 0.071% active; active means falling FRET ratio curve, often poorly fitted, with flat reads before Ran was added; inconclusive means other falling curves, or compound fluorescence or quenching; inactive means flat or rising ratio curve;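 further: potency means the concentration at half of the fitted maximal effect; % of control where 0% means no effect; nearly all actives have a fitted effect of over 45% in size; -100% = wells without RanGTP and RCC1; the record marks most hits as doubtful in a second field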
#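 Rango (0.1 uM)–importin beta (0.25 uM) complex; RanGTP-RCC1 trigger; 45 min RT; CFP/YFP FRET read.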
# miR-21 FLuc – raises the signal of a miR-21 reporter; HeLa miR-21 FLuc reporter, luciferase, 48 h; AID 2288; 340,000 tested, under 10 active; Potency, µM (titrated, usually from 38.3 µM), without a hit: at the top dose reporter change, positive = more light; active = well fitted rising curve with a large enough effect; inconclusive = small, poorly fitted or top-dose-only effect; inactive = no such curve, though single readings can be large or run the other way;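 further: % of control where 0% means no effect; miR-21 action dims this reporter so a rising signal means less miR-21 action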
#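 Luminescence from a firefly luciferase reporter carrying a miR-21 binding site downstream, stably expressed under a CMV promoter in HeLa cells that make miR-21 endogenously, reports miRNA modulation after 48 h compound exposure up to approximately 40uM final.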
# Rango complex inh – Rango-importin beta binding inhibition; Q14974; Rango CFP/YFP FRET sensor + importin beta, 45 min; Potency, µM (highest dose often 92.2 µM), for inactives: at the highest dose inhibition of complex formation; 340,000 tested, 0.031% active; AID 540263; active = rising FRET ratio curve, often small or poorly fitted; inconclusive = mostly compound fluorescence or quenching in the first reads; inactive = flat curves in all reads;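 further: potency means the concentration at half of the fitted maximal effect; 0% = DMSO wells and 100% = buffer wells lacking importin beta; nearly all actives have a fitted effect of over 15% in size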
#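 FRET biosensor Rango (snurportin 1 IBB between N-terminal EYFP and C-terminal Cerulean), 50 nM in PBS/1 mM DTT/0.02% Tween-20/0.1% BSA, preincubated 5 min RT with compound; 0.125 microM importin beta added, 45 min RT, CFP/YFP FRET ratio read.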
# GLA inh pH 4.5 – inhibitors of human alpha-galactosidase A at pH 4.5; purified enzyme, 4-MU-alpha-Gal fluorescence, pH 4.5; activity change, negative = inhibition, % at 105 µM; P06280; 230,000 tested, under 10 active; inconclusive = small, poorly fitted or top-dose-only inhibition, or a rising curve; inactive = flat fitted curve, though single readings scatter; no compound was filed as active;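 further: 0% = full activity with enzyme and -100% = basal without enzyme; dose as in the result columns while the protocol names 77 µM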
# Target sequence (P06280 whole entry, looked up): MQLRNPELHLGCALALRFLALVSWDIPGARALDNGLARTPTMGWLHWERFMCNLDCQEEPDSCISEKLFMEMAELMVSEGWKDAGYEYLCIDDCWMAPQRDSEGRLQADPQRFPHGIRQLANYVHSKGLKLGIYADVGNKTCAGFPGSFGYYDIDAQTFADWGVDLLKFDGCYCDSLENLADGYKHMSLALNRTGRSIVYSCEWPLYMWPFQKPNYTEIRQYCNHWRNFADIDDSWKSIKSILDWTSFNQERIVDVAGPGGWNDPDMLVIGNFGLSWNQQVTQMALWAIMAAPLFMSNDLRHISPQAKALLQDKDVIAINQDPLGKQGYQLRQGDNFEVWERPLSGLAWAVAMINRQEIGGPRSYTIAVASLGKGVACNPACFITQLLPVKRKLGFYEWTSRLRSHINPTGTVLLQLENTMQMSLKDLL
# Numbers without * were called inactive; ? = inconclusive; . = not tested or not shown; & = joins results of further samples; [ ] = another dose, or the depositor's remark. A portion of the library (hit frequency here may not be typical).
# The line under a structure holds: Rango dissoc inh, miR-21 FLuc, Rango complex inh, GLA inh pH 4.5
> Cc1ccc(S(=O)(=O)NC(CC(C)C)C(=O)Nc2ccncc2)cc1 (stereo not drawn)
  -10%, ., -3.0%, .
> O=C(Nc1ccccc1)OCc1cncs1
  0%, -32%, -1.2%, -1
> Cc1cc(C)cc(NC(=O)N2CCC(NC(=O)c3ccccc3C)CC2)c1
  17%, -1%, -0.2%, -1
> O=C(O)C1C(C(=O)Nc2ccc(Cl)cc2)C2C=CC1C21CC1 (stereo not drawn)
  -3%, -4%, 3.2%, 2
> Cc1c(C(=O)NCc2ccccc2)oc2ccc(S(=O)(=O)N3CCC4(CC3)OCCO4)cc12
  2%, 15%, -0.8%, -7
> N#Cc1ccccc1Cn1c(=O)oc2ccccc21
  12%, -13%, 3.0%, .
> O=C(CCSCCC(=O)NCc1ccc(F)cc1)NCc1ccc(F)cc1
  -29%, 1%, -0.8%, -13
> COc1cc(NS(=O)(=O)c2ccc(NC(=O)c3ccc(Cl)cc3Cl)cc2)ncn1
  -5%, -5%, -4.0%, .
> O=C(O)[C@@H]1CCCN1S(=O)(=O)c1cccc(S(=O)(=O)N2CCC[C@H]2C(=O)O)c1
  -7%, 3%, -1.9%, .
> Cc1ccc(NC(=O)COC(=O)CN2C(=O)NC3(CCCC3)C2=O)cc1S(=O)(=O)N(C)C
  -1%, 0%, 0.7%, -10
> C=CCSC(=S)Nc1c(C)n(C)n(-c2ccccc2)c1=O
  -12%, -1%, -4.8%, 11
> CCCC(NC(=O)Cc1c(C)c2cc3c(C)c(C)oc3c(C)c2oc1=O)C(=O)N[C@@H](Cc1ccccc1)C(=O)O (stereo partly drawn)
  -22%, 2%, ?, .
> CCC(C)Cn1cnc2c(Sc3c([N+](=O)[O-])ncn3C)nc(N)nc21 (stereo not drawn)
  0%, ., -0.6%, .
> Cc1c(Cl)cnc(NC(=O)COC(=O)CCC(=O)c2cccs2)c1Cl
  -1%, -4%, 0.6%, -3
> Cc1ccc(N2CCN(/N=C/C=C/c3ccccc3)CC2)cc1
  0%, -1%, 6.2%, 6
> COc1ccc(CN/C(C)=C(/C#N)C(N)=O)cc1OC
  2%, -15%, -1.9%, 2
> OCC1(Cc2ccccc2)CCN(Cc2cccc(F)c2F)CC1
  -2%, 3%, 5.0%, -1
> Cc1ccc2nc(NCCC(=O)O)nc(-c3ccccc3)c2c1
  ?, 0%, ?, 9
> CC(=O)Cn1cnc2c(cnn2-c2ccc(C)c(C)c2)c1=O
  -9%, -55%, -1.2%, .
> Cc1cc(C)nc(NC(=O)c2cnc3sccn3c2=O)n1
  0%, -3%, -0.7%, -1
> C=CCSC1=NC(=O)/C(=C/c2cccs2)S1
  -1%, -26%, 2.4%, -1
> O=C(c1ccco1)N1CCc2ccccc21
  5%, -62%, -2.4%, 3[21.1 µM]
> CS(=O)(=O)c1cccc(S(=O)(=O)N2CCCCCC2)c1
  0%, -7%, 0.4%, .
> CCCC(C)NNC(=O)c1cc2ccccc2[nH]1 (stereo not drawn)
  -5%, 5%, 6.5%, 6
> O=C(NN1C(=O)C2C3c4ccccc4C(c4ccccc43)C2C1=O)c1ccc(Cl)cc1 (stereo not drawn)
  -6%, -9%, -1.4%, -8
> CCC1CCCCN1C(=O)CCCc1ccccc1 (stereo not drawn)
  2%, -38%, -5.1%, .
> CCC1CN(C(=O)NCc2ccccc2)c2cc(C)ccc2O1 (stereo not drawn)
  0%, ?, -1.9%, .
> COc1cccc(C(=O)Cn2c(Br)nc3c2c(=O)n(C)c(=O)n3C)c1
  -4%, -8%, -5.1%, -9
> Cc1ccc2c(c1)c(CC(=O)Nc1ccc(C)c(F)c1)c(C(=O)O)n2C
  10%, 0%&7%, -2.4%, 6
> O=C(Nc1nc2c(Cl)cccc2s1)c1ccc([N+](=O)[O-])o1
  -13%, 11%, 0.6%, .

# Single values from the entries so far:
# For Rango dissoc inh, OCC1(Cc2ccccc2)CCN(Cc2cccc(F)c2F)CC1 shows -2%
# For Rango complex inh, COc1cccc(C(=O)Cn2c(Br)nc3c2c(=O)n(C)c(=O)n3C)c1 shows -5.1%
# For miR-21 FLuc, O=C(O)[C@@H]1CCCN1S(=O)(=O)c1cccc(S(=O)(=O)N2CCC[C@H]2C(=O)O)c1 shows 3%

# (more compounds)
# The line under a structure holds: Rango dissoc inh, miR-21 FLuc, Rango complex inh, GLA inh pH 4.5
> NC(=O)CC(NC(=O)c1cccc(Br)c1)c1ccc(NC2CCCCCCC2)c([N+](=O)[O-])c1 (stereo not drawn)
  6%, 2%, 0.0%, .
> CC(NC(=O)c1cc(-c2ccncc2)nc2ccc(Cl)cc12)C1CCCO1 (stereo not drawn)
  5%, 1%, -0.4%, .
> O=C(CC1SC(=O)N(Cc2ccccc2)C1=O)Nc1nccs1 (stereo not drawn)
  10%, 0%, -0.6%, 7
> CCOC(=O)CN1C(=O)C(O)(CC(=O)c2ccc3c(c2)CCCC3)c2ccccc21 (stereo not drawn)
  22%, 1%, -3.8%, -2
> O=C(COC(=O)CC1Sc2ccccc2NC1=O)NCc1ccccc1 (stereo not drawn)
  -12%, ., -1.9%, .
> COc1ccccc1OCCC(=O)O
  13%, -2%, 2.6%, 8
> O=C(Nc1c2c(nc3ccccc13)CCCC2)c1ccccc1F
  10%, -23%, 5.9%, 5
> C[C@H](NC(=O)c1[nH]cnc1C(=O)Nc1nccs1)c1ccccc1
  0%, ., -0.1%, .
> CCOC(=O)C1CCCN(S(=O)(=O)c2ccc(NC(C)=O)cc2)C1 (stereo not drawn)
  -1%, 4%, 1.7%, 6
> CCc1ccc(NC(=O)CCNS(=O)(=O)c2cccs2)cc1
  13%, -1%, -2.0%, .
> CCOC(=O)/C(C#N)=C/c1ccc(OCC(=O)Nc2ccc(C)c(C)c2)c(OC)c1
  -8%, -11%, 1.5%, 12
> Clc1ccc(-c2csc3ncnc(Cl)c23)cc1
  10%, 12%, -2.3%, 0
> Cc1ccccc1NC(=O)CSc1nnc(-c2ccccn2)o1
  4%, -28%, 0.1%, .
> Cc1ccccc1NC(=O)C1CC(=O)n2ncnc2N1 (stereo not drawn)
  -8%, 1%, 4.2%, 1
> FC(F)(F)c1nnc2ccc(N3CCCC3)nn12
  -22%, -7%, -6.9%, 4
> CC(=O)N1CCN(c2nc3cc4c(cc3nc2NS(=O)(=O)c2ccccc2)OCCO4)CC1
  ?, -14%, ?, -1
> CCOC(=O)N1CCC(NC(=O)CC2C(=O)NCCN2Cc2ccc(C)cc2)CC1 (stereo not drawn)
  -14%, -2%, 8.3%, .
> Cc1c(OCC(=O)NCc2ccncc2)ccc2c3c(c(=O)oc12)CCC3
  3%, -5%, 3.0%, .
> CCOC(=O)CSc1ccc2nnc(-c3ccncc3)n2n1
  -3%, -2%, -0.2%, -1
> O=C(O)c1cc(-c2ccccc2)n(-c2ccc(Cl)cc2Cl)n1
  22%, -7%, 4.6%, .
> COc1cc(C)c(C(=O)Oc2cc(C)c(C(=O)O)c(O)c2)c(O)c1
  2%, -7%, 1.1%, 11
> Cc1ccc(OC2=NS(=O)(=O)c3ccccc32)cc1
  8%, 0%, 0.1%, 6
> C=CCC1(C(=O)NCCO)CCN(C(=O)OC(C)(C)C)CC1
  -1%, 1%, 0.6%, .
> Cc1nonc1NC(=O)CSc1nc2ccccc2o1
  -10%, -5%, -1.4%, .
> CCC(C)N(CCNC(=O)CC1Oc2ccccc2NC1=O)C1CCCCC1 (stereo not drawn)
  8%, -6%, -3.1%, -7
> Cc1ccc(F)cc1NC(=O)c1cccc2nccnc12
  0%, -12%, -7.0%, -8
> O=C(NCc1ccco1)C1CCCN(c2ncnc3c2nc2n3CCCCC2)C1 (stereo not drawn)
  ?, 6%, ?, .
> CCc1ccccc1NC(=O)CC(=O)Nc1ccccc1CC
  -12%, 0%, -2.8%, .
> O=C(NN(c1ccccc1)c1ccccc1)c1ccccc1F
  13%, -11%, -4.1%, .
> COc1ccc(-c2csc3ncn(-c4ccccc4OC)c(=O)c23)cc1OC
  -8%, -1%, -1.6%, -3

# Random excerpt: 6 compounds from above
# The line under a structure holds: Rango dissoc inh, miR-21 FLuc, Rango complex inh, GLA inh pH 4.5
> NC(=O)CC(NC(=O)c1cccc(Br)c1)c1ccc(NC2CCCCCCC2)c([N+](=O)[O-])c1 (stereo not drawn)
  6%, 2%, 0.0%, .
> COc1ccccc1OCCC(=O)O
  13%, -2%, 2.6%, 8
> COc1cc(C)c(C(=O)Oc2cc(C)c(C(=O)O)c(O)c2)c(O)c1
  2%, -7%, 1.1%, 11
> CCC(C)N(CCNC(=O)CC1Oc2ccccc2NC1=O)C1CCCCC1 (stereo not drawn)
  8%, -6%, -3.1%, -7
> Clc1ccc(-c2csc3ncnc(Cl)c23)cc1
  10%, 12%, -2.3%, 0
> O=C(CC1SC(=O)N(Cc2ccccc2)C1=O)Nc1nccs1 (stereo not drawn)
  10%, 0%, -0.6%, 7

# Later entries.
# The line under a structure holds: Rango dissoc inh, miR-21 FLuc, Rango complex inh, GLA inh pH 4.5
> COCCNC(=S)N/N=C1\CC(C)CC(C)(C)C1 (stereo not drawn)
  -9%, 8%, 5.4%, -3
> Cn1nc(C(=O)NCc2ccco2)c2ccccc2c1=O
  4%, -2%, 3.3%, 6
> Clc1ccc(-c2noc(/C=C/c3ccccc3)n2)cc1
  3%, -5%, -1.0%, -15
> CCn1cc(C(=O)NCCN(CC(C)C)CC(C)C)c(=O)c2cc(S(=O)(=O)N3CCOCC3)ccc21
  -9%, 4%, 0.2%, .
> COc1cc(CO)cc(Br)c1OCc1cccnc1
  6%, -7%, 0.6%, -2
> C/C(=C\C(=O)c1ccc(Cl)cc1)Nc1ccc(Br)cc1
  -16%, ., -0.7%, .
> Cc1ccc(CC(=O)Nc2nccs2)cc1C
  0%, -19%, -0.8%, .
> CCOc1ccc(C(C)=O)cc1COC(=O)CNC(=O)C12CC3CC(CC(C3)C1)C2
  ?, ., 6.6%, .
> Cc1cc(C(=O)Nc2ccc3[nH]ccc3c2)no1
  -11%, -29%, 2.9%, -3
> O=C(CSc1ncn[nH]1)NN(c1ccccc1)c1ccccc1
  7%, -2%, 2.6%, 2
> Cc1cc(Cl)ccc1N=Cc1c(O)n(C)c(=O)n(C)c1=O
  ., -4%, ., 9
> Cc1ccc(O)c(C2=NOC(O)(C(F)(F)F)C2)c1 (stereo not drawn)
  3%, -9%, -1.6%, -1
> O=C(CCNC(=O)c1ccc(Br)cc1)Nc1cccc(S(=O)(=O)N2CCCCC2)c1
  13%, ., -3.3%, .
> O=C(c1cc2ccccc2o1)N1CC=C(c2ccccc2)CC1
  12%, -12%, 0.2%, -9
> C/C=C(\C)C(=O)NCCN1C2=NC[C@@H](Cc3ccccc3)N2C[C@H]1Cc1ccc(O)cc1
  -5%, -3%, -3.1%, 2
> CC(C)c1ccccc1NC(=O)C1CCCN(C(=O)c2ccc(Cl)cc2)C1 (stereo not drawn)
  -1%, ., 0.1%, .
> O=C(CN1CCCC1)Nc1ccc(Oc2ccc(NC(=O)CN3CCCC3)cc2)cc1
  1%, -2%, -1.3%, -9
> O=C1CC[C@H](N2C(=O)c3ccccc3C2=O)C(=O)N1
  2%, ., ?, 2&0
> Cc1nc2ccc(Br)cc2c2c1CC(CBr)O2 (stereo not drawn)
  30%, 0%, -2.2%, .
> O=C(c1cc(F)c(F)cc1Cl)N1CCN(CCc2ccccc2)CC1
  -1%, 3%, 5.4%, .
> COc1cc(NC(=O)C2CCN(S(=O)(=O)c3ccc(N4CCCC4=O)cc3)CC2)cc(OC)c1
  -12%, 1%, 1.8%, .
> CN(/N=C/c1cc(Cl)ccc1O)C1=NS(=O)(=O)c2ccccc21
  30%, 2%, -1.0%, .
> CCOCCCNC(C(=O)Nc1ccc(OC)c(Cl)c1)c1ccccc1 (stereo not drawn)
  17%, 1%, 3.1%, -1
> S=C(NCCc1ccc(Cl)cc1)NCc1ccco1
  -1%, 1%, -2.4%, -5
> CC(=O)N(Cc1ccc(F)cc1)C1=C(NCc2ccccc2)C(=O)c2ccccc2C1=O
  -17%, ?, ?, -6
> COc1ccc(-c2cc3n(n2)CCc2nc4ccccc4n2-3)cc1
  2%, -4%, -3.4%, -8
